Assay outcomes from PubChem BioAssay.
PrP 5UTR inh = suppresses PrP 5' UTR mRNA reporter expression | cell-based PrP 5' UTR mRNA reporter, plate reader | inhibition, % (no concentration beside the values) | 0.35% of 340,000 active;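 active = every replicate at 50% or more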;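 note: 0 = median of the neutral control wells; tested in H4 reporter cells; numbers are from one replicate; inactives centre near -14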
Mtb hypoxia rep = inhibitors of hypoxia-regulated fluorescent reporter in Mycobacterium tuberculosis; M. tuberculosis hypoxia-regulated fluorescent reporter, fluorescence; AID 1159583; 0.1% of 300,000 active; fluorescence inhibition, % (test concentration not listed);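 active = 35 to 45% if threefold the growth effect, above 45% if 1.5-fold the growth effect; inactive = the rest, general growth blockers included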;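 note: wells of about 50 µL received 100 nL stock; 0% = vehicle wells and 100% = reference inhibitor wells; whole bacteria with a GFP reporter of the hypoxia response; strong numbers were not always called active; many hits fall short of the cut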
Sa ugtP lethal = kills S. aureus RN4220 lacking UgtP; S. aureus RN4220 ugtP deletion, OD600 growth, 16 h; some inactives read as strong as hits; AID 1259309; 0.54% of 330,000 active; growth inhibition, % (concentration not given with the values);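 active = z-score under -3 and OD600 up to 0.15 on both plates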;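 note: plate controls were untreated wells for no effect and antibiotic for full effect; wells of about 80 µL received 100 nL stock; the first replicate is given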
BJeLR lethal = kills HRASV12-expressing BJeLR cells; inhibition, % (concentration not given with the values); 0.17% of 300,000 active; BJeLR (HRASV12) viability, CellTiter-Glo ATP luminescence, 48 h; reference of the scale not given here;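 active = replicate mean above 50%; inconclusive = above 50% but judged a plate artefact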;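 note: 50 nL library stock added to about 25 µL; numbers are from one replicate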
Sa RN4220 lethal = S. aureus RN4220 growth inhibition; OD600, 16 h; inhibition, % (no concentration beside the values); 0.33% of 330,000 active; AID 1259311;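 active = z-score of -3 or lower and OD600 up to 0.18 on both plates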;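 note: plate controls were untreated cells for no effect and reference antibiotic for full effect; stock transfer was 100 nL into about 80 µL; one replicate is shown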
Autofluor counter = compound fluorescence in toxin protease inhibitor counterscreen. fluorescence intensity (no concentration beside the values). compound autofluorescence counterscreen, microsphere flow cytometry; active compounds read high. 3.1% of 360,000 active. AID 624483;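 active = at least 3 SD above the mean of all compounds, about 16000 in these data; inconclusive = too few beads counted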;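 note: 100 nL of 1 mM stock went into each well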
Mtb hypoxia rep growth = second read-out of Mtb hypoxia rep, no call of its own (marks repeat the call); growth inhibition, %; measured here: M. tuberculosis growth (absorbance);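 0% = vehicle and 100% = reference antibiotic; read after six days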
* marks the source's active call; other numbers are inactive results; ? = inconclusive; · = no result given. Compounds as they come, and some 4% of all compounds hit somewhere here.

Under each structure: Autofluor counter	Sa RN4220 lethal	Mtb hypoxia rep growth	Mtb hypoxia rep	BJeLR lethal	Sa ugtP lethal	PrP 5UTR inh
#1 CCOc1ccc(NC(=O)c2cc(OC)nc3ccccc23)cc1
  3983	0.7	1	-3	38	4	43
#2 CC(Sc1ccccc1)C(=O)NN=Cc1ccccc1 (stereo not drawn)
  ·	0.9	6	8	·	-1	·
#3 COc1cccc(CN2CC(C(=O)NCCc3ccc(C)o3)CCC2=O)c1 (stereo not drawn)
  6157	1.5	1	10	-7	3	-22
#4 O=C(/C=C/c1ccco1)NCCc1ccccc1
  3947	2.2	2	2	1	9	-25
#5 O=C(c1cc2cc(Br)ccc2[nH]1)N1CCc2ccccc21
  4514	1.9	1	5	3	-3	-50
#6 COc1cccc(OC)c1OCC(O)CN1CCN(c2ccccc2)CC1 (stereo not drawn)
  4394	-1.7	·	·	-9	-4	-8
#7 CN(CC(=O)Nc1ccc(F)cc1)C(=O)COc1ncnc2ccccc12
  4669	2.3	5	-2	0	3	-26
#8 CC1CN(C(=O)CCC(=O)NC2CCCCC2)c2ccccc2S1 (stereo not drawn)
  6110	1.0	·	·	2	-3	-13
#9 CCn1c(CCNC(=O)c2cccs2)n[nH]c1=S
  2206	-5.5	13	1	3	2	-29
#10 Cc1cc(C)cc(NC(=O)CSc2nc(=O)n3cc(C)ccc3n2)c1
  3990	-2.7	-2	4	-4	8	-15
#11 CCCCS(=O)(=O)N1CN(S(=O)(=O)CCCC)C2NC(=O)NC21 (stereo not drawn)
  9162	2.5	6	1	-4	2	-17
#12 CCOc1ccc(CN2CCNC(=O)C2CC(=O)N(C)Cc2nonc2C)cc1 (stereo not drawn)
  ?	-0.5	-1	-12	-1	-10	-13
#13 CCOC(=O)C1CCN(C(=O)c2cc(S(=O)(=O)N3CCOCC3)c(Cl)cc2Cl)CC1
  3307	-22	-19	18	-7	-7	-11
#14 Cc1cccc(-c2n[nH]c(=S)n2N=Cc2cccs2)c1
  ·	3.4	10	-7	·	-8	·
#15 Cc1c(NC(=O)CSc2ccc(Cl)cc2)cccc1-c1nc2cc(Cl)ccc2o1
  2529	·	·	·	5	·	-17
#16 COc1ccccc1NS(=O)(=O)c1cc(NC(=S)Nc2cc(C)cc(C)c2)ccc1Cl
  2526	-12	5	-8	1	-6	-5
#17 CC1Cc2ccccc2N1C(=O)CSc1nnnn1C(C)C (stereo not drawn)
  3983	1.9	9	4	7	0	-5
#18 Cn1c(=O)n(N=Cc2ccccc2)c2ccccc21
  ·	5.3	2	-3	·	4	·
#19 Cc1ccc(NC(=S)NC(=O)c2ccc(F)cc2)cc1S(=O)(=O)Nc1ccccc1Cl
  2030	23	17	10	1	24	-5
#20 N=c1oc2ccccc2cc1-c1nc(-c2ccc(Cl)cc2)cs1
  7783	0.8	-7	1	5	6	-1
#21 CCn1cc(C(=O)OCC(=O)c2ccc(Cl)cc2)c(=O)c2ccc(C)nc21
  4314	12	11	7	9	7	-3
#22 CCCC(C(=O)O)N1C(=O)C(=C2C(=O)N(C)c3ccccc32)SC1=S (stereo not drawn)
  ·	14	4	14	·	-14	·
#23 COc1ccc(OC)c(NC(=O)CCN2CCCC(C)C2)c1 (stereo not drawn)
  6622	4.8	5	13	-8	-3	-14
#24 O=C(CSc1nnnn1-c1ccccc1)Nc1nsc(-c2ccc(Cl)cc2)n1
  2664	10	·	·	2	-7	-44
#25 Clc1ccc(C2=Nn3c(nnc3-c3n[nH]c4c3CCC4)SC2)cc1Cl
  10290	5.6	2	14	6	3	-17
#26 CC(C)CC(N)c1cn(C(Cc2cc3ccccc3[nH]2)C(=O)N2CCNCC2)nn1 (stereo not drawn)
  ·	7.8	9	7	·	5	·
#27 O=C(CSc1nnc(-c2ccccc2F)o1)NC1CCCCC1
  5772	-3.8	0	-8	-12	1	-10
#28 O=C(CSc1ccc(-c2ccc(F)cc2)nn1)NCCc1ccccc1
  3632	8.1	-4	-1	-5	5	-15
#29 O=C(Oc1ccccc1Cl)c1ccc(-n2cncn2)nc1
  5809	3.3	-6	-17	22	5	-35
#30 O=C(O)Cn1nc(-c2ccccc2)oc1=O
  2389	5.8	3	14	-8	-4	-11
#31 COc1ccccc1/C=C/CN1CCC(n2nccc2NC(=O)C2CC2)CC1
  4964	-0.6	-3	-7	6	3	-11
#32 CCOc1ccccc1N(C)C(=O)c1ccc2c(=O)n3c(nc2c1)CCCCC3
  3998	12	8	4	-1	13	-9
#33 CC(=O)Nc1ccc(S(=O)(=O)N2CCN(CCC#N)CC2)cc1
  6272	-1.0	·	·	7	0	1
#34 CN(CCc1ccccc1)Cc1c[nH]c2ccccc12
  ·	4.0	9	11	11	0	-22
#35 Cc1cccc(CCNC(=O)CCS(=O)(=O)c2cc3c(cc2C)NC(=O)CO3)c1
  6021	-1.6	-1	-6	-17	-4	-3
#36 Cc1ccc(-c2nc(C#N)c(NCc3cccc4c3OCO4)o2)cc1
  5653	-7.7	5	12	2	1	-17
#37 O=C(N/N=C/c1ccncc1)c1ccc(OCc2ccccc2)cc1
  3612	·	·	·	-10	·	-19
#38 COc1ccc(C(=O)c2c[nH]c3ccccc23)cc1
  5024	5.5	·	·	6	-10	-85
#39 Nc1cc(N)cc(C(=O)OCC(=O)Nc2cc(S(=O)(=O)N3CCCCC3)ccc2Cl)c1
  4560	13	5	-8	-6	7	-11
#40 COCCCNC(=O)CSc1ccc(Cl)cc1
  ·	-2.5	14	1	-3	-5	0
#41 COc1ccccc1C(CC(=O)N1CCCC1)c1ccc2c(c1)OCO2 (stereo not drawn)
  4513	4.6	-5	-1	-2	8	7
#42 Cc1ccc(Cn2nnnc2CN2CCC(NC(=O)C(C)(C)C)CC2)cc1
  3480	7.5	8	1	-7	1	-2
#43 O=C(NC(=S)Nc1ccc(F)c(Cl)c1)C1CC1
  4405	-5.4	17	17	-3	13	-23
#44 CC(=O)c1cc(OC(=O)N2CCOCC2)ccc1OC(=O)N1CCOCC1
  3041	0.7	·	·	4	-2	-21
#45 CCCCN1C(=O)C(O)(c2ccccc2)c2cc(Br)ccc21 (stereo not drawn)
  3979	2.4	0	6	1	0	-19
#46 Cc1ccc(NS(=O)(=O)c2ccc(CCC(=O)NCCO)cc2)cc1
  15246	2.4	-4	0	8	3	-1
#47 CCN1C(=O)C2C(c3ccc(-c4ccc(OC)cc4)c(OC)c3)N[C@@](C)(C(=O)OC)C2C1=O (stereo partly drawn)
  ·	3.4	10	9	·	-5	·
#48 COc1ccc(/C=C\C(=O)CC(O)(c2ccccc2)C(F)(F)F)cc1 (stereo not drawn)
  9750	5.4	12	9	-5	7	-25
#49 CC1CN(c2nc3c(c(=O)[nH]c(=O)n3C)n2Cc2ccccc2F)CC(C)O1 (stereo not drawn)
  8482	3.9	13	11	-3	-1	-12
#50 Cc1ccc(C)c(NC(=O)CSc2sc3c(O)cc(=O)[nH]c3c2C#N)c1
  3804	4.3	4	4	-9	11	-2
#51 COc1cc(C=NNC(=O)CCOc2ccccc2C)cc(Br)c1O
  ·	-0.4	4	1	·	1	·
#52 O=C(NCC(=O)N(c1ccccc1F)C(C(=O)NCC1CCCO1)c1ccccc1)c1ccco1 (stereo not drawn)
  3408	-1.6	-1	-1	-12	-8	-38
#53 COc1cccc(NC(=S)N2CCn3c(nc4ccccc43)C2)c1
  2749	2.1	2	9	-3	5	-6
#54 NS(=O)(=O)c1cccc(Nc2nc3ccccc3nc2NS(=O)(=O)c2ccc(Cl)cc2)c1
  4071	5.9	7	10	·	-8	16
#55 COC(=O)c1[nH]c2ccccc2c1Sc1ccccc1
  3896	4.5	0	7	1	-2	-19
#56 CC1C/C(=N/N=C2/NC(=O)CS2)CC(C)(C)C1 (stereo not drawn)
  5085	·	·	·	-4	·	-24
#57 Cc1cccc(N2CCN(Cc3oc(CO)cc(=O)c3O)CC2)c1C
  4020	2.6	·	·	-2	3	-8
#58 COc1ccc(CNC(=O)COC(=O)c2cc(S(=O)(=O)N3CCOCC3)ccc2O)cc1OC
  3586	5.5	3	3	·	3	0
#59 CN1C(=S)SC(/[N+]([O-])=C/c2ccc(Cl)cc2)C1(C)C (stereo not drawn)
  4641	1.8	2	15	1	9	-2
#60 CCOc1cc(/C=C/C(=O)c2ccc3c(c2)OCCO3)ccc1OCC(=O)N(C)C
  3161	0.5	0	-19	14	4	60*

Further records:
Under each structure: Autofluor counter	Sa RN4220 lethal	Mtb hypoxia rep growth	Mtb hypoxia rep	BJeLR lethal	Sa ugtP lethal	PrP 5UTR inh
#61 COC(=O)c1sc(C(F)(F)F)c(-c2ccccc2)c1S(=O)(=O)NC(C)(C)C
  5021	6.6	-3	-7	-1	7	-11
#62 CC(OC(=O)Cn1cnc2c1c(=O)n(C)c(=O)n2C)C(=O)N(C)c1ccccc1 (stereo not drawn)
  5806	-1.7	2	-2	-8	1	-5
#63 CC12CCC(=O)N1C(C(=O)OCC(=O)Nc1cccc(S(=O)(=O)N3CCCCCC3)c1)CS2 (stereo not drawn)
  10378	0.0	-10	-3	3	1	-15
#64 COCCn1c(SCC(=O)Nc2sc(C)c(C)c2C#N)nnc1-c1ccc(OC)cc1
  22774*	5.5	9	1	-10	-10	-20
#65 COc1ccc(/C=N/N=C2/NC(=O)C(CC(=O)NC(C)C)S2)cc1 (stereo not drawn)
  3370	·	·	·	2	·	-16
#66 COc1ccccc1NC(=O)C1=C(C)Nc2nc(-c3cccs3)nn2C1c1cccnc1 (stereo not drawn)
  5911	-0.7	·	·	-11	14	-32
#67 CN1C(=O)CC(c2ccccc2)Nc2ccccc21 (stereo not drawn)
  6040	6.1	-4	-10	-7	8	-29
#68 COc1cccc(-c2cc(C(F)(F)F)c(C#N)c(=O)[nH]2)c1
  2250	21	14	4	-1	28	-29
#69 CC1=C(C(N)=O)C(c2ccccc2[N+](=O)[O-])n2ncnc2N1 (stereo not drawn)
  3135	1.0	-3	10	3	6	-15
#70 CN(CC(=O)Nc1cccc(F)c1)C(=O)CNS(=O)(=O)c1ccc(N(C)C)c([N+](=O)[O-])c1
  ·	3.4	-2	1	-1	0	-17
#71 COCCOc1ccc(C(F)(F)F)cc1NC(=O)COC(=O)c1c(C)noc1C
  4847	-0.7	-1	-1	0	-11	-2
#72 CCCC(=O)OCC(=O)Nc1ccc(OC(F)F)cc1
  4340	10	2	10	-1	18	-18
#73 O=[N+]([O-])c1ccc(O)c(/C=N/n2cnnc2)c1
  6600	·	·	·	6	·	-8
#74 CCCCNC(=O)/C=C1\Sc2ccccc2NC1=O
  2082	5.5	3	4	-16	7	-19
#75 O=C(c1ccccc1Cl)N1CCN(S(=O)(=O)N2CCCCC2)CC1
  3568	1.3	-1	-5	2	7	-2
#76 CC(C)Nc1nc(Oc2ccc(Cl)cc2)cc(C(F)(F)F)n1
  15168	-7.5	11	5	-9	24	-13
#77 CNC(=O)Nc1ccccc1NC(=O)NC
  5988	1.1	-2	-3	-2	-2	-16
#78 COc1ccc(C(=O)NCC2OCCc3ccccc32)cc1OC (stereo not drawn)
  3283	5.6	8	10	1	2	-14
#79 CCn1c(SCC(=O)NNC(=O)c2ccc(C)cc2)nnc1-c1ccncc1
  9929	1.7	9	7	-14	3	-8
#80 O=S(=O)(NCCc1ccccc1)c1ccc(Br)s1
  6479	·	·	·	-6	·	-14
#81 CC(=O)C1CCC2C3CCC4CC(=O)CCC4(C)C3C(O)CC12C (stereo not drawn)
  2612	1.6	-4	3	·	0	7
#82 COCCOC(=O)c1[nH]c2c(c1C)C(=O)CC(c1ccc(F)cc1)C2 (stereo not drawn)
  5639	3.1	·	·	3	11	-33
#83 Cc1ccc(CN2CC(C(=O)N3CCN(c4ccccc4Cl)CC3)CC2=O)cc1 (stereo not drawn)
  3948	-0.2	4	5	·	-4	-11
#84 O=C(Cn1cnc2cc([N+](=O)[O-])ccc2c1=O)Nc1cccc(S(=O)(=O)N2CCCCC2)c1
  5283	0.8	3	4	·	10	-1

Whole records, looked up by structure. Values in the order: Autofluor counter	Sa RN4220 lethal	Mtb hypoxia rep growth	Mtb hypoxia rep	BJeLR lethal	Sa ugtP lethal	PrP 5UTR inh
COCCOC(=O)c1[nH]c2c(c1C)C(=O)CC(c1ccc(F)cc1)C2 (stereo not drawn) as listed: 5639	3.1	·	·	3	11	-33
CCn1cc(C(=O)OCC(=O)c2ccc(Cl)cc2)c(=O)c2ccc(C)nc21 as listed: 4314	12	11	7	9	7	-3
COCCCNC(=O)CSc1ccc(Cl)cc1 as listed: ·	-2.5	14	1	-3	-5	0
